PV pol inh – poliovirus RNA polymerase inhibition. AID 588519. P03300. % elongation, % (compound at 16.7 µg/mL). poliovirus polymerase elongation, fluorescence polarization; hits give low values. 0.66% of 150,000 active; in the data active = % elongation below about 90%; also: some results filed as inactive read as strong as hits
Target sequence (P03300 1749-2209 limits assumed): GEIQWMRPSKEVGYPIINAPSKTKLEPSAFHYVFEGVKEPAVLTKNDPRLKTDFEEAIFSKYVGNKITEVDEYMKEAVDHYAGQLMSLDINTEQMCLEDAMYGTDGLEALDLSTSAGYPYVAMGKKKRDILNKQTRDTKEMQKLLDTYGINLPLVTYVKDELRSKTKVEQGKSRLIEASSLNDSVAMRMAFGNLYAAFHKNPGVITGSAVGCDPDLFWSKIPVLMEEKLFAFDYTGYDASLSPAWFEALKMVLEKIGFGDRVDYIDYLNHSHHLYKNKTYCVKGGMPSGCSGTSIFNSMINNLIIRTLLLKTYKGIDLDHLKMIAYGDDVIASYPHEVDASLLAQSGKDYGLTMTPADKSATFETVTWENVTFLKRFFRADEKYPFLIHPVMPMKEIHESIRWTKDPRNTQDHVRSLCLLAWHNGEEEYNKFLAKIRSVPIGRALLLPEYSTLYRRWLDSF
Mtb MenB inh – inhibitors of Mycobacterium tuberculosis MenB enzyme; 0.43% of 100,000 active; MenB enzyme assay, absorbance read-out; some hits fall short of the stated cut; inhibition, %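 (about 12 µg/mL by stock and volumes)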;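 active = mean of two replicates above 30%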;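 also: 0% = no compound and 100% = wells with inactive enzyme; the first replicate is given; strong numbers were not always called active; inactives centre near -10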
Target sequence (P9WNP5 whole entry, looked up): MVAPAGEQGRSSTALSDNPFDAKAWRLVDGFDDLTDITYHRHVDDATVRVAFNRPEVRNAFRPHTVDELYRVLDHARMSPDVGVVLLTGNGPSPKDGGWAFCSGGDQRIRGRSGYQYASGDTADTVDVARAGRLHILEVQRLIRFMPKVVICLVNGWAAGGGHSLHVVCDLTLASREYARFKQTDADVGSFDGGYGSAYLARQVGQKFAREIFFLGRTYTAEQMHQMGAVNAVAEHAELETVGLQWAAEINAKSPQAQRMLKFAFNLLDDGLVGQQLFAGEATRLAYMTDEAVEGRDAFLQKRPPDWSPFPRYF
Mtb MbtI inh – blocks the Mycobacterium tuberculosis siderophore enzyme MbtI; purified MbtI enzyme, fluorescence intensity read-out; inhibition, %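 (about 17 µg/mL by stock and volumes)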; P9WFX0; 0.89% of 100,000 active;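 active = above 50% in both replicates, above 80% if mildly self-fluorescent; inactive = the rest, strongly fluorescent compounds included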;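 also: 0% = mean of negative and 100% = mean of positive controls; one replicate is shown; some compounds called inactive have numbers as strong as hits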
PV pol inh intensity – also measured in PV pol inh; calls as there; % elongation; measured here: total intensity read-out; formula for this scale not given here;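 total fluorescence in place of polarization; lower means less elongation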
* hit, by the source's call; . = no result given; & = joins results of further samples.

canonical_smiles,PV pol inh,PV pol inh intensity,Mtb MenB inh,Mtb MbtI inh
C[C@@H]1O[C@@H](OC[C@H]2OC(Oc3c(-c4ccc(OCCO)c(OCCO)c4)oc4cc(OCCO)cc(O)c4c3=O)[C@H](O)[C@@H](O)[C@@H]2O)[C@H](O)[C@H](O)[C@H]1O (some centres not stated),101.0,100.0,-3.6,0.6
O=C(O)c1c(CNCc2cccs2)c2ccccc2n1Cc1ccccc1,103.0,103.0,-10.3,9.7
O=C1CCc2cc(S(=O)(=O)NC(C(=O)NC3CCCC3)c3ccccc3)ccc2N1 (configuration not stated),102.0,102.0,-11.8,-5.9
COc1cc(OC)c(C(=O)NC(C)C2CCCO2)cc1OC (configuration not stated),101.0,103.0,3.2,-84.9
CSc1nc(N)n(-c2cc(Cl)cc(Cl)c2)n1,100.0,107.0,-2.9,-2.8
O=C(NC1CCCc2ccccc21)c1ncoc1-c1cccs1 (configuration not stated),102.0,102.0,15.7,116.1
CC(C)c1[nH]nc2oc(=N)c(C#N)c(-c3c(O)[nH]c4ccc(Br)cc34)c12,102.0,101.0,-22.9,4.3
CC1(C)CC(=S)C=C(N2CCOCC2)C1,101.0,105.0,-22.0,21.4
C=C1c2ccccc2NC(=O)N1c1ccccc1,97.0,100.0,-17.8,-2.7
CN(Cc1ccccc1)S(=O)(=O)c1ccc2c(c1)SCC(=O)N2,101.0,102.0,7.8,5.1
Cc1ccc(C)c(NC(=O)C(c2ccccc2)N2CCCCC2C(N)=O)c1 (configuration not stated),.,.,-0.2,-3.3
Clc1ccc(Cn2nnc(-c3ccccc3)n2)cc1,106.0,107.0,-13.2,.
CCn1c(-c2cc(OC)ccc2OC)csc1=Nc1ccc(O)cc1,87.0*,92.0*,-37.5,65.8*
CSc1ncc(C(=O)OC(C)c2nc3ccccc3c(=O)[nH]2)n1-c1ccc(F)cc1 (configuration not stated),104.0,105.0,-8.1,-10.8
O=c1[nH]c2cc3c(cc2[nH]1)OCCO3,101.0,100.0,36.8*,83.2
COc1ccc(OCCNS(=O)(=O)Cc2ccccc2)cc1,98.0,102.0,-18.2,9.9
COc1ccc(Nc2nnc(SC3CCOC3=O)s2)cc1 (configuration not stated),98.0,103.0,5.3,8.8
Cc1cc(C)c(N=Cc2sccc2C)c(C)c1,97.0,103.0,0.5,.
Cc1ccc(Nc2nc(N)nc(CN3CCC(Cc4ccccc4)CC3)n2)cc1,104.0,104.0,-23.2,3.9
COC(=O)c1cn(CC(=O)NC2CCCCCC2)c2ccccc12,100.0,100.0,30.7*,-1.4
O=C(CCc1nc2cccnc2n1-c1ccccc1)Nc1ccc2c(c1)OCO2,98.0,103.0,-18.8,4.0
CN1CCCN(Cc2cc(C(C)(C)C)c(O)c(C(C)(C)C)c2)CC1,99.0,102.0,-3.2,3.7
CC1CC(NC(=S)Nc2ccc(I)cc2F)CC(C)(C)C1 (configuration not stated),105.0,110.0,-17.3,-9.8
CC(OC(=O)c1ccccc1Nc1ccc(SC(F)F)cc1)C(N)=O (configuration not stated),100.0,102.0,-21.6,-33.1
COc1ccc(N2CCN(C(=O)C34CC5CC(CC(C5)C3)C4)CC2)cc1,102.0,107.0,-19.3,-9.2
CCCCC1CC(C)(C(=O)Nc2ccc(S(N)(=O)=O)cc2)OC1=O (configuration not stated),101.0,101.0,-52.4,-6.3
CCOc1cc(/C=N/NC(=O)C(OC)c2ccccc2)ccc1O (configuration not stated),103.0,100.0,1.9,-66.9
Cc1c2cnn(-c3ccccc3)c(=O)c2c(C)n1C(C)C(=O)NCc1ccccn1 (configuration not stated),104.0,102.0,-42.2,8.4
CC(C)c1ccc(NC2=CC(=O)CCC2)cc1,99.0,101.0,-16.9,26.6
Cc1ccc(S(=O)(=O)c2c(C)nn(-c3ccccc3)c2OC(=O)c2ccco2)cc1,98.0,101.0,0.1,10.1
O=c1c(Cl)c(N2CCCC2)cnn1-c1nc2ccccc2s1,101.0,102.0,-1.8,-8.4
O=C(CC1(O)C(=O)Nc2ccccc21)c1ccc2ccccc2c1 (configuration not stated),101.0,105.0,-17.2,-6.5
COC(=O)c1cc(S(=O)(=O)N(C)c2ccc(C)c(C)c2)c[nH]1,103.0,101.0,5.4,0.8
O=C(CSc1ccccn1)C12CC3CC(CC(C3)C1)C2,104.0,107.0,.,1.1
CCCCC(C(N)=O)C(N)=O,101.0,104.0,-9.1,-0.6
CCn1c(CCNC(=O)c2ccc(Cl)cc2)nnc1SCc1nc2ccccc2c(=O)[nH]1,99.0,100.0,4.5,-1.0

An excerpt from above in order of molecular weight, falling:
canonical_smiles,PV pol inh,PV pol inh intensity,Mtb MenB inh,Mtb MbtI inh
C[C@@H]1O[C@@H](OC[C@H]2OC(Oc3c(-c4ccc(OCCO)c(OCCO)c4)oc4cc(OCCO)cc(O)c4c3=O)[C@H](O)[C@@H](O)[C@@H]2O)[C@H](O)[C@H](O)[C@H]1O (some centres not stated),101.0,100.0,-3.6,0.6
Cc1ccc(S(=O)(=O)c2c(C)nn(-c3ccccc3)c2OC(=O)c2ccco2)cc1,98.0,101.0,0.1,10.1
CC1CC(NC(=S)Nc2ccc(I)cc2F)CC(C)(C)C1 (configuration not stated),105.0,110.0,-17.3,-9.8
CCn1c(-c2cc(OC)ccc2OC)csc1=Nc1ccc(O)cc1,87.0*,92.0*,-37.5,65.8*
CCCCC1CC(C)(C(=O)Nc2ccc(S(N)(=O)=O)cc2)OC1=O (configuration not stated),101.0,101.0,-52.4,-6.3
O=C(CSc1ccccn1)C12CC3CC(CC(C3)C1)C2,104.0,107.0,.,1.1
CSc1nc(N)n(-c2cc(Cl)cc(Cl)c2)n1,100.0,107.0,-2.9,-2.8

(listing goes on)
canonical_smiles,PV pol inh,PV pol inh intensity,Mtb MenB inh,Mtb MbtI inh
O=C(O)/C=C/C(=O)N1CCN(c2cccc(Cl)c2)CC1,100.0,104.0,11.4,-4.0
COc1ccccc1CNC(=O)c1ccc2c(SCC(=O)O)c3c(nc2c1)CCCC3,104.0,106.0,-13.1,7.7
C/C(=N/NC(=O)c1ccccc1)C1C(=O)c2ccccc2C1=O,102.0,101.0,-134.0,3.1
CC(C(=O)O)c1n[nH]c(=O)c2ccccc12 (configuration not stated),103.0,102.0,-10.9,-20.8
O=C(/C=C/c1ccco1)Nc1ccc2c(c1)nc1n2CCCCC1,102.0,106.0,-9.0,13.5
C=CC[n+]1ccsc1N,101.0,110.0,.,-10.6
CCCn1c(NCc2ccccc2O)nc2ccccc21,101.0,103.0,6.8,1.8
CC1ON(c2ccc(Br)cc2)C(=O)NC1=O (configuration not stated),100.0,99.0,-12.7,-128.4
CC(C)c1ccc(NC(=O)CN2CCC(n3nnc4ccccc43)CC2)cc1,105.0,104.0,-61.8,-3.2
CC(=O)Nc1ccc(C(=O)Nc2ccc(-c3nc4ccccc4o3)cc2)cc1,103.0,103.0,2.1,-20.4
O=c1nc2n3ccccc3ncc-2s1,96.0,108.0,-0.9,106.9
Cc1c(-c2cccc(NC(=O)CC(C)C)c2)nc2ncccn12,99.0,103.0,-30.2,129.8
CC(=O)ON1C(C)(C)C=C(C(N)=O)C1(C)C,109.0,112.0,-19.4,.
C(CC1CCNCC1)CC1CCNCC1,105.0,102.0,0.8,-8.1
CC(=O)Nc1ccc(S(=O)(=O)N(C)Cc2ccc(C)o2)cc1,103.0,101.0,-18.7,-11.4
Cc1cc(/C=N/NC(=O)c2cccnc2)c(C)n1-c1cccc(S(=O)(=O)N2CCOCC2)c1,107.0,98.0,-18.0,10.6
O=C1CNC(=O)N1/N=C/c1cccc2ccccc12,106.0,106.0,-9.9,.
O=C(NCC1CCCO1)NC12CC3CC(CC(C3)C1)C2 (configuration not stated),101.0,103.0,-14.4,-0.3
O=C1N=c2ccccc2=C1c1[nH]c(=S)[nH]c1O,103.0,102.0,-10.6,9.8
O=C1c2cccnc2C(=O)N1c1ccc(-c2nc3cc(Cl)ccc3o2)cc1,103.0,103.0,10.7,-51.9
O=C(O)COCC(=O)Nc1ccc(Oc2c(Cl)cccc2Cl)nc1,102.0,102.0,-16.7,7.0
Cc1c(NC(=O)c2ccccc2)c(=O)n(-c2ccccc2)n1C,101.0,104.0,10.4,9.5
C=CCNC(=O)/C(=C/c1ccccc1)c1ccccc1,100.0,101.0,-7.5,8.0
O=C(c1ccccc1)c1cccn1CC(=O)N1CCCC1,101.0,111.0,-12.0,4.9
O=C(C1=C(O)C(=O)N(CCc2ccccc2)C1c1ccncc1)c1cc2ccccc2o1 (configuration not stated),98.0,102.0,-99.0,17.6
Cc1cc(=O)oc2cc(OCC(=O)NCc3ccc(Cl)cc3)ccc12,105.0,107.0,.,25.9
O=C1Cc2ccccc2N1,97.0,102.0,13.6,-17.8
CCNC(=S)N/N=C/c1ccc2ncccc2c1,100.0,100.0,-38.7,5.0
CCOC(=O)c1oc2ccc(Br)cc2c1COC(=O)Cc1n[nH]c(=O)c2ccccc12,103.0,102.0,-0.8,-5.2
CN1/C(=C\C(=O)Cn2cc(S(=O)(=O)N3CCCC3)ccc2=O)C(C)(C)c2ccccc21,102.0,107.0,-27.1,5.3
CCCC12CN3CC(CCC)(CN(C1)C3c1c[nH]c3ccccc13)C2=O (configuration not stated),103.0&101.0,90.0&101.0,15.6,-2.5
CCCCc1cc(=O)oc2cc(OC(=O)c3ccco3)ccc12,100.0,104.0,-9.4,-64.6
Oc1ccc(CNc2cccc(C(F)(F)F)c2)c2cccnc12,101.0,99.0,-77.8,17.2
CC(O)CN(CC(C)O)CC1CC=CCC1 (configuration not stated),101.0,104.0,-28.0,-21.2
COCc1nnc(NC(=O)C2CC(=O)N(c3ccc(C)cc3)C2)s1 (configuration not stated),104.0,102.0,-61.4,9.8
CC1CC(C)CN(CC(=O)Nc2ccccc2C(N)=O)C1 (configuration not stated),103.0,105.0,3.2,-20.4
COc1ccc(-c2nc(SC(C(=O)NC(N)=O)C(C)C)n[nH]2)cc1 (configuration not stated),100.0,98.0,-12.5,-17.8
CCOC(=O)c1c(-c2ccccc2)csc1NC(=O)C1CC1,103.0,106.0,.,-3.6
CCOC(=O)NC1CCS(=O)(=O)C1 (configuration not stated),100.0,98.0,-14.2,-3.2
O=C(Nc1nc2ccccc2[nH]1)c1ccccc1,104.0,117.0,-17.7,5.0
CCOc1ccccc1-n1c(SCC(=O)c2ccc3c(c2)OCCO3)nc(O)cc1=O,102.0,103.0,-132.3,-82.0
CCCN(C(=O)c1ccc2c(=O)n3c(nc2c1)CCCC3)c1ccc(Cl)c(Cl)c1,99.0,101.0,4.3,3.8
O=C(COC(=O)c1cccc(-n2cccc2)c1)NCc1ccccc1,102.0,99.0,6.0,23.7
CC(N)C12CC3CC(CC(C3)C1)C2 (configuration not stated),103.0,106.0,.,-7.3
O=C(NCC1CCN(C2CCCC2)C1)c1cnn2ccccc12 (configuration not stated),100.0,105.0,1.9,99.0
Cc1ccc(-n2c(C)c3c(C)nnc(C)c3c2C)cc1,101.0,96.0,.,-20.9
CCOc1cc2c(cc1OCC)C(CC(=O)O)N(C(=O)NCc1ccccc1)CC2 (configuration not stated),98.0,100.0,1.1,22.9
O=C(Oc1coc(CSc2ncccn2)cc1=O)c1ccc(S(=O)(=O)N2CCCC2)cc1,105.0,102.0,-5.3,5.9
O=C(Nc1cccc(-c2noc(-c3ccccn3)n2)c1)c1ccco1,101.0,101.0,-20.2,-13.1
Cc1oc2c(c1C(=O)NC1CCCC1)C(=O)c1ccccc1C2=O,98.0,99.0,4.0,15.3
CN(C)C(=O)C(Sc1nnc(-c2ccccc2F)n1C)c1ccccc1 (configuration not stated),103.0,97.0,10.1,3.2
CCCSc1ncccc1C(=O)Nc1c(-c2ccccc2)noc1C,103.0,108.0,-14.8,4.8
Cc1ccc(C(=O)O)cc1S(=O)(=O)N1CCSCC1,103.0,101.0,-2.9,-14.1
CCCc1cnc(N2CCN(C(=O)c3cc(C)on3)CC2)nc1,103.0,103.0,-1.8,4.1
CCC(CO)N=Cc1ccc(O)c(OC)c1 (configuration not stated),99.0,108.0,-47.6,17.1

Screening results deposited in PubChem BioAssay by ICCB-Longwood Screening Facility, Harvard Medical School.
